Bioassay records: PubChem, several laboratories
Arbovirus anti: antivirals against arbovirus infection, primary screen, cell-based, full library, 10K replicate subset; arbovirus infection cell-based antiviral screen; inhibition, % at 10 µM; 200,000 tested, 0.37% active; AID 1251, 2008;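 active means inhibition from about 30%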;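 further: bluetongue infection of BSR cells; cell survival read as ATP light after 72 h; 0% = infected wells without compound and 100% = uninfected wells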
YopH inh: YopH tyrosine phosphatase inhibitors, primary screen, biochemical, fluorescence Ex485/Em525. AID 898, 2007. 140,000 tested, 0.16% active. inhibition, %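 (about 10 µM by stock and volumes)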;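 active means inhibition of 50% or more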;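 further: controls were vehicle for no effect and minimum signal wells for full effect; inactives centre near -20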
Mtb H37Rv: M. tuberculosis H37Rv growth inhibitors, H37Rv strain (AID 1626); inhibition, % at 10 µM; hits with a dose series show IC50 in µM; M. tuberculosis H37Rv growth inhibition; higher % means a stronger effect; 220,000 tested, 0.95% active;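 active means confirmed in a dose series; inconclusive means inhibition above 80% but not taken into the dose series; inactive means below 80% or under 30% at every dose of the series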;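 further: bacteria incubated seven days before Alamar blue readout; 0% = bacteria only wells and 100% = bacteria with antibiotic wells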
Mtb bLac sens: beta-lactam sensitization of Mtb H37Rv, H37Rv; 330,000 tested, 0.27% active; inhibition, % at 25 µM; M. tuberculosis H37Rv growth with meropenem, percent inhibition; hits of this screen are not shown here;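 active means about 74% or more and at least 40 points above the plate without the antibiotic, then above 30% in a dose series; inconclusive means first-round hits that could not be retested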;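 further: growth measured after seven days incubation then overnight dye step; 0% = bacteria only wells and 100% = bacteria with antibiotic; twin plates without the antibiotic show which effects depend on it; some results filed as inactive read as strong as hits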
RecA intein inh: Mtb RecA intein splicing inhibitors, primary screen, biochemical, fluorescence, HTS; AID 2221, 2009; inhibition, %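 (about 9 µM by stock and volumes)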; 290,000 tested, 0.75% active; cell-free RecA intein splicing; Protein RecA (Mycobacterium tuberculosis (strain ATCC 25618 / H37Rv)), P9WHJ3; in the data active means inhibition above about 30%; inconclusive means no clear call, values can overlap the other calls;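 further: 0% = vehicle wells and 100% = reference inhibitor control wells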
Target sequence (P9WHJ3 whole entry, looked up): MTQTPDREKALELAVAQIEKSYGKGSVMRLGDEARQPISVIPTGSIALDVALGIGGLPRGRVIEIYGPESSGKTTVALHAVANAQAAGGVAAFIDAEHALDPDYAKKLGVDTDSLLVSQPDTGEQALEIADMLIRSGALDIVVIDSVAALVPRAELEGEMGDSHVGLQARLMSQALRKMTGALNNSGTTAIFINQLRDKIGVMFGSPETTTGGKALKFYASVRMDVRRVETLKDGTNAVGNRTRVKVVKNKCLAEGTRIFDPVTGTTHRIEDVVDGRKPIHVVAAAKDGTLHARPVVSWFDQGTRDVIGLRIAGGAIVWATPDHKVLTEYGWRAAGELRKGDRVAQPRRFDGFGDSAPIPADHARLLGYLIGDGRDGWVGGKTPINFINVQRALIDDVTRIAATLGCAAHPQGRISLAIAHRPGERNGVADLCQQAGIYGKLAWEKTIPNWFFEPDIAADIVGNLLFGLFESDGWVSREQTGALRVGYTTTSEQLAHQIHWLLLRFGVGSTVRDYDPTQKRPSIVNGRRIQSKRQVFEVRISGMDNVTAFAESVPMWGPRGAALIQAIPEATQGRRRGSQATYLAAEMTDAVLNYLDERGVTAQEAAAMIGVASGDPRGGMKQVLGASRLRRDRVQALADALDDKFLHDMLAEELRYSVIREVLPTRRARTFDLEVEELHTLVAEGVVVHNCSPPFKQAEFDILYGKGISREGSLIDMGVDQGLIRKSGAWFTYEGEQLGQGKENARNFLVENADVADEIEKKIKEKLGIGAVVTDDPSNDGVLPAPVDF
Arbovirus anti repeat: also measured in Arbovirus anti; calls as there; inhibition, %; measured here: 10K subset replicate screen; many hits read low in the repeat;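 first of two repeat runs on a subset; 0% = infected and 100% = uninfected wells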
* = called active by the depositor; u = inconclusive; x = not tested or not shown. Some of the compounds tested (hit frequency here may not be typical).

SMILES	Arbovirus anti	YopH inh	Mtb H37Rv	Mtb bLac sens	RecA intein inh	others
COc1ccc(CNc2nc3nc(C)c(Cl)c(=O)n3[nH]2)cc1	x	x	u	99	-1.5
CCCc1cc(=O)[nH]c(SCC(=O)Nc2ccc(Br)cc2)n1	x	x	-10%	-1	3.1
O=C(CSc1nnc2scc(-c3ccc(Cl)cc3)n12)NCc1ccc2c(c1)OCO2	-25	-4	-4%	10	-3.5
COc1ccc(-c2nnc3ccc(SCC(=O)NCc4ccco4)nn23)cc1	0	-53	-4%	-4	-1.7
Oc1c(Cl)cc(Cl)cc1/C=N/c1ncn[nH]1	x	x	x	-2	-3.0
O=C(c1c(F)cccc1F)N1CCN(c2cccc(C(F)(F)F)c2)CC1	-16	12	-6%	7	x	Arbovirus anti repeat=7
CCCOc1c(Br)cc(C2C3=C(CCCC3=O)N(CC)C3=C2C(=O)CCC3)cc1OC	1	x	2%	-3	-88
COc1ccc(CC2(CO)CCN(Cc3ccc4c(c3)CCO4)CC2)cc1	-7	x	1%	-13	-0.5
Cn1c(=O)c2c(nc(SCCN3CCOCC3)n2Cc2ccccc2Cl)n(C)c1=O	-4	-44	3%	-3	-0.8	Arbovirus anti repeat=-5
COCCN(Cc1cc2cc3c(cc2nc1Cl)OCO3)C(C)=O	7	x	-8%	0	-0.2
COc1ccc(CC(=O)Nc2c3c(nn2-c2cccc(C)c2C)CS(=O)C3)cc1OC (centres undefined)	-2	14	4%	-8	0.5
CC(C)c1ccc(NC(=O)C2C3C=CC4(CN(Cc5cccnc5)C(=O)C24)O3)cc1 (centres undefined)	19	x	-4%	-1	-0.5
COc1ccc(C(=O)Cn2cc[n+](C)c2)cc1	x	x	x	-2	-0.6
CC1=NN(Cc2ccccc2)C(=O)C1C(c1ccc(Cl)cc1)C(C#N)C#N (centres undefined)	-5	-28	1%	0	80*
O=C(Nc1ncccn1)C1=C(O)c2ccccc2S(=O)(=O)N1Cc1ccccc1	x	x	x	11	-0.7
Cc1ccccc1CNC(=O)CN(c1ccccc1Cl)S(C)(=O)=O	x	x	x	0	1.4
NC(=O)N/N=C/c1cccc(C(F)(F)F)c1	x	x	11%	-8	1.8
O=C(c1cccnc1)C1CCCN(Cc2nc(Cc3ccccc3F)no2)C1 (centres undefined)	9	x	2%	3	-3.7
COc1ccc(C(=O)Nc2c(N)nc[nH]c2=O)cc1	x	x	x	-9	-7.4
Cc1cc(C)nc(NC(=O)c2ccc(C)c(C)c2)n1	x	x	x	-2	-0.2
O=C(Nc1ccccn1)c1ccc(=O)[nH]n1	-6	-21	-1%	0	-1.4
COc1ccc(-c2nnc(CSc3nc4ccccc4c(=O)n3CC3CCCO3)o2)cc1OC (centres undefined)	x	x	9%	-8	0.2
CCCN(CCC)S(=O)(=O)c1ccc(C(=O)Nc2cc3oc4ccccc4c3cc2OC)cc1	-5	-17	-5%	3	-10
O=C(Nc1ccc(Nc2ccccc2)cc1)c1ccc(F)cc1	x	x	x	-3	-0.1
Cc1cc2oc(=O)cc(CN3CCCCC3C)c2cc1Cl (centres undefined)	x	x	x	u	4.1
O=C1NCC2=C1C(c1ccc(Br)cc1)Nc1ccccc1N2 (centres undefined)	10	-38	-2%	5	-6.0	Arbovirus anti repeat=2
COc1cccc(NC(=S)NCCN2CCOCC2)c1	-4	8	6%	-8	1.3
COc1ccc(NC(=O)COC(=O)CCCOc2ccc(Cl)cc2Cl)cc1Cl	3	-23	81µM*	94	9.5
Cc1ccc(S(=O)(=O)NCC(=O)N(CC(=O)NC2CCCC2)CC2CCCO2)cc1 (centres undefined)	x	x	x	2	0.1
CCOC(=O)N1CCN(S(=O)(=O)N2CCCC(C(=O)NCc3ccc(F)cc3)C2)CC1 (centres undefined)	x	x	x	7	1.6

Reprinted from the part before: four entries; new compounds follow.
SMILES	Arbovirus anti	YopH inh	Mtb H37Rv	Mtb bLac sens	RecA intein inh	others
COc1cccc(NC(=S)NCCN2CCOCC2)c1	-4	8	6%	-8	1.3
COc1ccc(NC(=O)COC(=O)CCCOc2ccc(Cl)cc2Cl)cc1Cl	3	-23	81µM*	94	9.5
Cc1ccc(S(=O)(=O)NCC(=O)N(CC(=O)NC2CCCC2)CC2CCCO2)cc1 (centres undefined)	x	x	x	2	0.1
CCOC(=O)N1CCN(S(=O)(=O)N2CCCC(C(=O)NCc3ccc(F)cc3)C2)CC1 (centres undefined)	x	x	x	7	1.6
COC(=O)c1ccccc1NC(=O)Cn1cnc2c(cnn2-c2ccc(C)c(C)c2)c1=O	x	-32	4%	8	1.4
C[C@H](NC(=O)[C@@H]1Cc2ccccc2CN1C(=O)OC(C)(C)C)C(=O)NCc1ccco1	x	x	x	-5	1.1
COCC(C)OC(=O)C(C#N)c1nc2ccccc2nc1N1CCN(Cc2ccccc2)CC1 (centres undefined)	-3	-33	13%	48	-49
Cn1c(CS(=O)Cc2c(Cl)cccc2Cl)nnc1SCc1ccc(Cl)cc1 (centres undefined)	-4	-6	6%	0	18
Nc1nc(-c2ccccc2)c(N=Nc2cccc3ccccc23)s1	-25	-17	50%	40	3.1
O=C1CC(c2ccccc2)c2c(O)cc(O)cc2O1 (centres undefined)	24	-39	-4%	1	-1.7
CCc1nnc(NC(=O)CCC(=O)NCc2ccccc2Cl)s1	x	x	x	-5	-1.9
CCOC(=O)Nc1nc2ccccc2s1	7	6	-24%	1	-1.4
Cc1cc(Cl)ccc1OCCn1cncn1	5	x	7%	-1	-0.7
COc1ccc([N+](=O)[O-])cc1NS(=O)(=O)c1cc(C(=O)O)ccc1OC	x	x	-8%	2	-1.6
CCN(CCCC(=O)c1ccc(F)cc1)CCc1ccccc1	x	x	x	-11	0.6
Cc1c(NC(=O)CSc2nnc(-c3cccc(Cl)c3)o2)c(=O)n(-c2ccccc2)n1C	5	16	-3%	-8	-1.5
Cc1ccc(CNC(=O)CS(=O)(=O)c2ccccc2)cc1	-2	x	-3%	-3	-3.8
CCC(C)[C@H](NC(=O)N1CC(=O)Nc2ccccc21)C(=O)N1CCC(C(=O)O)CC1 (some centres undefined)	x	x	x	-5	-2.1
CCC(=O)N1c2ccc(S(=O)(=O)N3CCN(C)CC3)cc2CC1C (centres undefined)	x	x	x	1	-6.4
Cn1cc(CCC(=O)N2CCCC(CCC(=O)NCc3ccc(F)c(F)c3)C2)cn1 (centres undefined)	6	x	7%	4	0.3
Cc1cc(C2(c3ccc(O)c(C)c3)C(=O)Nc3ccccc32)ccc1O	-32	-12	-6%	3	0.7
CN(C)C(=O)CSc1nnc(-c2ccc(F)cc2)c2ccccc12	x	x	-9%	3	x
COC(=O)/C(=C/c1cn(C)c2ccccc12)[N+](=O)[O-]	-1	-23	x	x	2.7
CS(=O)(=O)N(CC(=O)N1CCCC1)c1cc(Cl)ccc1Cl	x	x	x	0	1.2

Among those listed so far, two have a nitro group on carbon:
SMILES	Arbovirus anti	YopH inh	Mtb H37Rv	Mtb bLac sens	RecA intein inh	others
COc1ccc([N+](=O)[O-])cc1NS(=O)(=O)c1cc(C(=O)O)ccc1OC	x	x	-8%	2	-1.6
COC(=O)/C(=C/c1cn(C)c2ccccc12)[N+](=O)[O-]	-1	-23	x	x	2.7

Later entries:
SMILES	Arbovirus anti	YopH inh	Mtb H37Rv	Mtb bLac sens	RecA intein inh	others
CC(C)c1ccc(NC(=O)CCNC(=O)Cn2ccc3ccccc3c2=O)cc1	x	x	x	-7	0.2
CSCC(CO)NS(=O)(=O)c1ccc(C)cc1 (centres undefined)	x	x	-10%	-1	-3.3
O=C(CSc1nnc(CNC(=O)c2ccco2)o1)Nc1ccc(F)cc1F	x	x	x	2	-2.5
COc1cc(/C=N/OCC(=O)NC2CCS(=O)(=O)C2)ccc1OC(F)F (centres undefined)	4	x	1%	0	-0.4
CSc1ccccc1OCc1cc(C(=O)NCCN2CCCC(O)C2)no1 (centres undefined)	x	x	x	12	3.2
Cc1ccccc1NC(=O)/C(=C\c1cccs1)NC(=O)c1ccccc1	7	-31	2%	-2	x
COc1ccc(OC)c(C(=O)c2ccccn2)c1	x	x	x	3	-1.2
O=C1CCC(C(=O)N2CCCCO2)CN1CCc1ccccc1 (centres undefined)	x	x	x	4	-0.8
CCCNC(=O)CN(c1ccc(F)c(Cl)c1)S(C)(=O)=O	10	-18	-10%	u	0.1
CC(C)N1CCN(Cc2cccc([N+](=O)[O-])c2)CC1	4	x	-3%	-12	0.1
COCCNC(=O)Cn1ccc2cc(S(=O)(=O)N3CCCCC3)ccc21	x	x	x	-7	0.2
C=CCn1c(O)c(N=Nc2nc3ccccc3c(=O)n2-c2ccccc2)c2ccccc21	10	0	-2%	0	7.9
N=c1sccn1CC(=O)Nc1ccc(S(=O)(=O)N2CCOCC2)cc1	8	-37	-8%	0	-1.5
O=[N+]([O-])c1ccc(NC(=S)N2CCCC2)cc1	x	x	x	0	-1.8
Cc1cc(C)c(SCCc2ccncc2)c(C)c1	x	x	x	5	3.7
Cc1nn(-c2ccccc2)c2c1C(c1ccc3c(c1)OCO3)SCC(=O)N2 (centres undefined)	12	-2	4%	6	1.6
CCCCCCOC(=O)Sc1nc2ccccc2o1	2	-23	-1%	2	14
O=C(C1=C(O)C(=O)N(c2ncccn2)C1c1cccc(Cl)c1)c1ccco1 (centres undefined)	3	-15	-2%	28	-3.0
CC1CCN(Cc2cc(=O)oc3cc(O)c(Cl)cc23)CC1	x	x	x	-3	-2.1
CCOC(=O)N=Nc1c(O)n(C)c2ccccc12	-5	-18	0%	-6	2.2

Filtered by structure, the entries above with a cyano group
SMILES	Arbovirus anti	YopH inh	Mtb H37Rv	Mtb bLac sens	RecA intein inh	others
CC1=NN(Cc2ccccc2)C(=O)C1C(c1ccc(Cl)cc1)C(C#N)C#N (centres undefined)	-5	-28	1%	0	80*
COCC(C)OC(=O)C(C#N)c1nc2ccccc2nc1N1CCN(Cc2ccccc2)CC1 (centres undefined)	-3	-33	13%	48	-49

Further results
SMILES	Arbovirus anti	YopH inh	Mtb H37Rv	Mtb bLac sens	RecA intein inh	others
Nc1ccn(Cc2ccc(F)cc2)n1	4	x	-2%	45	5.4
CCOC(=O)CC1C(=O)NCCN1C(=O)c1cc2c(=O)n3ccccc3nc2s1 (centres undefined)	4	-6	x	7	-114	Arbovirus anti repeat=0
COc1ccc(CCNC(=O)COC(=O)C23CC4CC(CC(C4)C2)C3)cc1	-5	-30	1%	6	4.8
COc1cc(/C=C2/C(=O)NN(c3cccc(C)c3)C2=O)ccc1OC(=O)c1ccco1	-23	-9	40%	99	15
Cc1ccc(Cl)cc1NC(=O)COC(=O)c1ccc(N2CCCC2)c([N+](=O)[O-])c1	-13	-22	-4%	0	-4.6
CCCCC[n+]1ccn(C2=C([O-])c3ccccc3C(=O)/C2=N\S(=O)(=O)c2ccc(Cl)cc2)c1	x	x	1%	-17	5.6
CNC(=O)c1c(Cl)cnn1-c1ccc(F)cc1	-1	x	4%	-5	0.5
Cc1cc(C)n(-c2ccc(C(=O)OCC(=O)Nc3ccccc3[N+](=O)[O-])cc2)n1	1	-18	6%	8	-6.3
O=C1/C(=C/c2ccccn2)SC(=S)N1NS(=O)(=O)c1ccccc1	-1	x	8%	3	-0.3
CCOc1ccc2[nH]c(C(=O)N/N=C/c3ccc(OC)cc3)cc2c1	x	x	x	6	-3.0
O=C(Nc1nnc(-c2ccccn2)o1)c1cccc(Cl)c1	-1	x	5.3µM*	93	-0.7
COc1ccc(S(=O)(=O)Cc2ccc(C(=O)N3CCN(Cc4ccccc4)CC3)o2)cc1	1	-31	-7%	1	x
CCOc1ccccc1N1CCN(C(=O)c2cc(-c3cccnc3)nc3c(Cl)cccc23)CC1	x	x	x	7	3.0
Cn1c(=O)n(C)c2cc(S(=O)(=O)NCCOCCO)ccc21	-3	-11	-7%	4	1.2
O=C(CCn1c(SCC(=O)NCc2ccco2)nc2ccccc2c1=O)NCCc1ccccc1	-17	-37	-5%	18	0.5
O=C(NCc1nnc2n1CCCCC2)c1ccc(Cl)cc1Cl	0	-23	-9%	-11	-0.4
O=C(CCC(=O)N1CCN(S(=O)(=O)c2ccccc2)CC1)NC1CCCc2ccccc21 (centres undefined)	8	-32	-4%	15	1.1
